# High-throughput results from PubChem.
# TRPML1 inh: qHTS for Inhibitors of the Human Mucolipin Transient Receptor Potential 1 (TRPML1). activity change, negative = inhibition, % (concentration not given with the values). TRPML1-inducible cells, Ca2+ dye fluorescence, FDSS; stronger effect = lower value; inhibition of EC80 agonist-evoked calcium signal. AID 624415, 2012. Mucolipin-1 (Homo sapiens), Q9GZU1. 390,000 compounds, 0.02% hits; in the data active means activity change below about -50%; inconclusive means about -30% to -50%; inactive means above about -30%;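 also: stimulus is agonist 54-4 at its EC80 concentration; % is scaled to controls: 0 for no effect and ±100 for the full control effect; the text of the record puts the active cut at -80%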
#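 Calcium fluorescence in TRPML1-DL cells induced overnight with Tet: a 110 s read after compound pin addition, then a 110 s antagonist read after challenge with 54-4 at 4 uM final (EC80).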
# Six1-Eya2 inh: qHTS Assay for Inhibitors of the Six1/Eya2 Interaction; Homeobox protein SIX1 (Homo sapiens) + Protein phosphatase EYA2 (Homo sapiens), …; AlphaScreen GST-Six1/His-Eya2 binding, biochemical; stronger effect = lower value; control for the full effect not named in the record; activity change, % (test concentration not listed); 360,000 compounds, 0.56% hits; in the data active = activity change below about -65%; inconclusive = about -30% to -65%; inactive = above about -30%; also: % is scaled to controls: 0 for no effect and ±100 for the full control effect
# Target sequence (O00167 whole entry, looked up): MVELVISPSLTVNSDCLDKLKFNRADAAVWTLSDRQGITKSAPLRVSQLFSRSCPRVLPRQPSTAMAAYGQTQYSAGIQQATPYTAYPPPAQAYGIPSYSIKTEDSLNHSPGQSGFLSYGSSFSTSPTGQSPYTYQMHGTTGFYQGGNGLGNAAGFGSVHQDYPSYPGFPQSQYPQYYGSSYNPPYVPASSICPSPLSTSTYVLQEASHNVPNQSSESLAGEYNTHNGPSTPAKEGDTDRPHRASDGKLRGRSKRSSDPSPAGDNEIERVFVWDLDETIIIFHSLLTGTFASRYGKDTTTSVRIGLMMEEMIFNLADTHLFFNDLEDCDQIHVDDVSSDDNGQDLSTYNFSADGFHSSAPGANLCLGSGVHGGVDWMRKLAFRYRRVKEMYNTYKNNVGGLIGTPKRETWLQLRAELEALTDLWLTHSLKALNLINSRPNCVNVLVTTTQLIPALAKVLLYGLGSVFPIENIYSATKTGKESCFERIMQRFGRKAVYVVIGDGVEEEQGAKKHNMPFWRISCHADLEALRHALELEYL
# Target sequence (Q15475 whole entry, looked up): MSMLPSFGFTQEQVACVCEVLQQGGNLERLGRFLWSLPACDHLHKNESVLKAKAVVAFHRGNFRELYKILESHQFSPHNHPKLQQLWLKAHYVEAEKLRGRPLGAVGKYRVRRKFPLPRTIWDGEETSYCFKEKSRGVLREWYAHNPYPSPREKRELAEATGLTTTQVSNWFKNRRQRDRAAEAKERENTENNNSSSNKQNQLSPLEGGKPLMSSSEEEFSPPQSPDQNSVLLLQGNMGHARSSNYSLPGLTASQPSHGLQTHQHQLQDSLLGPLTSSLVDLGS
#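 AlphaScreen with GST-Six1 and His-Eya2 (5X mix: 250 nM and 500 nM), glutathione donor and nickel acceptor beads; buffer 50 mM Tris pH 8.0, 300 mM NaCl, 1 mM TCEP; 1 h at 37 C in the dark.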
# TRPML1 ag: qHTS for Agonists of the Human Mucolipin Transient Receptor Potential 1 (TRPML1); Mucolipin-1 (Homo sapiens), Q9GZU1; TRPML1-expressing cells, Ca2+ dye fluorescence, FDSS; host cell line not named in the record; reference of the full effect not given here; activation, % (test concentration not listed); 410,000 compounds, 0.12% hits; AID 624414, 2012; in the data active = activation above about 50%; inconclusive = about 30% to 50%; inactive = below about 30%; also: 0% is about no effect; the text of the record puts the active cut at 80%
#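 Tetracycline-induced TRPML1-DL cells are seeded and incubated overnight before loading with a no-wash Ca2+ dye and quencher. Agonist activity is taken from the 110 s fluorescence read following compound pin-transfer on an FDSS, before EC80 54-4 challenge.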
# CtBP-E1A inh: qHTS Assay for Inhibitors of the CtBP/E1A Interaction. activity change, % (no concentration beside the values). 340,000 compounds, 0.49% hits. AlphaScreen GST-E1A/His-CtBP binding, 1536-well; stronger effect = lower value; control for the full effect not named in the record. AID 651724, 2012; in the data active means activity change below about -65%; inconclusive means about -30% to -65%; inactive means above about -30%; also: % is scaled to controls: 0 for no effect and ±100 for the full control effect
#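 AlphaScreen with 125 nM GST-E1A and 125 nM His-CtBP (5X stocks) in Tris pH 8.0, 300 mM NaCl, BSA, Tween 20, TCEP. Compounds preincubated 2 h at 37 deg C, then glutathione donor/nickel acceptor beads added for 1 h at 37 deg C in dark.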
# TRPV1 PAM: HTS Assay for Compounds that Act as Potentiators of the Vanilloid Receptor 1. Transient receptor potential cation channel subfamily V member 1 (Homo sapiens), Q8NER1. TRPV1-expressing cells, Fluo-8 calcium influx, capsaicin EC20 potentiation; host cell line not named in the record; control for the full effect not named in the record. potentiation, % at 8.33 µM. 320,000 compounds, 0.02% hits. AID 540277, 2011; active means potentiation above 80%; inconclusive means 30% to 80%; inactive means below 30%; also: 0% is about no effect
#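 Cells expressing TRPV1 were dye-loaded with Fluo-8 and read kinetically: 10 s baseline, 3 min after compound (agonist portion), then 2 min after EC20 capsaicin (allosteric enhancer portion). Calcium-bound dye fluorescence at 480/520 nm.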
# D2 potentiator: Beta-Arrestin HTS for Positive Allosteric Modulators of the Human D2 Dopamine Receptor: Potentiators; DiscoveRx D2 beta-arrestin cells, luminescence, 90 min; 100% = 57 uM dopamine signal; potentiation, % (test concentration not listed); 360,000 compounds, 0.23% hits; active = potentiation of 50% or more; inconclusive = 30% to 50%; inactive = 30% or less;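 also: compound concentration not given in the record; tested on top of an EC20 dose of dopamine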
#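 PathHunter beta-arrestin assay in DiscoveRx D2 cells. Compounds were added with an EC20 of dopamine (50 nM final) for 90 min at 37 deg C. Luminescence was read 1 h after detection reagent, with 57 uM dopamine as the EC100 control.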
# An asterisk follows results filed as active; ? = inconclusive; / = no result given.
SMILES,TRPML1 inh,Six1-Eya2 inh,TRPML1 ag,CtBP-E1A inh,TRPV1 PAM,D2 potentiator
CC(C)C[C@@H](CN(N=O)[C@@H](Cc1ccccc1)CN(C)N=O)N(CCc1ccccc1)N=O,-4,0,-0.2,8,8,-2
Cc1cc(C)cc(NC(=O)Nc2ccc(-n3ccc(C(F)(F)F)n3)cc2)c1,2,-3,2.7,12,-9,-7
COc1ccc(NC(=O)c2cccc(N3C(=O)c4cccc([N+](=O)[O-])c4C3=O)c2)cc1,9,0,-0.4,-3,?,-24
CCn1c(-c2ccc(OC)c(OC)c2)n[nH]c1=S,-1,3,-1.5,0,-3,-40
COc1cc(NC(=O)c2ccccc2)c(OC)cc1NC(C)=O,13,0,0.0,0,-11,-1
CC(C)NC(=O)c1ccc(-c2cccc(C(F)(F)F)c2)o1,8,2,0.8,-1,-13,4
O=C(Nc1cc(N2CCOCC2)ncn1)Nc1cccc2ccccc12,-9,5,0.1,2,4,-6
COc1ccc(NC(=O)CSc2nc(SC)ns2)c(OC)c1,8,0,1.0,-3,5,-4
N#Cc1c(/N=C/N2CCOCC2)sc2c1CCCCC2,8,-7,1.4,-12,-20,-16
CCOC(=O)c1sc(NC(=O)C2CC2)nc1C,14,26,-0.8,23,-3,-4
O=C(COC(=O)c1ccc(S(=O)(=O)N2CCOCC2)cc1)Nc1ccccc1OC(F)F,-14,0,2.6,8,/,-13
COc1cccc(N2CC(C(=O)Nc3ccc(F)cc3)CC2=O)c1 (centres undefined),-24,0,-0.1,0,?,-12

# Looked up one by one from the list above (two):
SMILES,TRPML1 inh,Six1-Eya2 inh,TRPML1 ag,CtBP-E1A inh,TRPV1 PAM,D2 potentiator
N#Cc1c(/N=C/N2CCOCC2)sc2c1CCCCC2,8,-7,1.4,-12,-20,-16
COc1ccc(NC(=O)CSc2nc(SC)ns2)c(OC)c1,8,0,1.0,-3,5,-4

# Among those listed so far, these contain a CF3 group.
SMILES,TRPML1 inh,Six1-Eya2 inh,TRPML1 ag,CtBP-E1A inh,TRPV1 PAM,D2 potentiator
Cc1cc(C)cc(NC(=O)Nc2ccc(-n3ccc(C(F)(F)F)n3)cc2)c1,2,-3,2.7,12,-9,-7
CC(C)NC(=O)c1ccc(-c2cccc(C(F)(F)F)c2)o1,8,2,0.8,-1,-13,4

# (list continues)
SMILES,TRPML1 inh,Six1-Eya2 inh,TRPML1 ag,CtBP-E1A inh,TRPV1 PAM,D2 potentiator
Oc1ccc(-c2cn3c(n2)SCC3)cc1O,12,?,-0.2,-25,-5,23
COc1ccc2nc(Nc3nc(C)c(C(C)=O)s3)sc2c1,-30,-1,-0.2,-11,2,-9
CCOc1ccc(/C=C2\CCc3ccccc3C2=O)cc1,34,-3,3.4,-10,-13,-3
O=C1CC(c2ccc3c(c2)OCO3)c2cc3c(cc2N1)OCO3 (centres undefined),-17,-14,-0.9,-10,0,-7
O=C(CC1Sc2ccccc2NC1=O)NNc1ccc(Cl)c(Cl)c1 (centres undefined),-27,-10,0.0,5,/,-4
COc1cc(OC)cc(-c2c(-c3ccc(F)cc3)c3cc(Br)ccc3n2C)c1,-4,-12,-0.5,-1,-1,-5
COC(=O)c1sccc1S(=O)(=O)Nc1ccc(N2CCCCC2)cc1,-18,?,0.9,-26,-20,-18
O=C(COCc1cc(-c2ccco2)on1)NC1CCCCC1,7,1,-0.6,/,-23,-3
COc1ccc(/C=C/C(=O)OCC(=O)Nc2ccc(Cl)cn2)cc1,1,-3,0.3,/,2,-9
CN(CC(=O)Nc1ccccc1Cl)C(=O)Cn1cc(C(F)(F)F)cc(Cl)c1=O,6,13,0.6,-4,0,-16
Clc1ccc(CSc2nnc(-c3c[nH]c4ccccc34)o2)cc1,27,-7,-0.4,-9,1,3
COc1ccc2oc(C(=O)OCC(=O)NCC3CCCO3)c(C)c2c1 (centres undefined),-1,-2,-0.4,1,-2,4
COc1ccc(C2CC(=O)N3C(=C2C#N)SCC3(O)c2ccccc2)cc1 (centres undefined),-1,-11,-0.4,-10,-7,-6
Cc1nnc(N/N=C/C2CC=CCC2)[nH]c1=O (centres undefined),14,-22,1.0,-20,-6,-6
CCc1ccccc1NC(=O)CSc1nnc([C@@H](NC(=O)OC(C)(C)C)C(C)C)o1,7,-2,0.1,0,-10,-10
Cc1nn2c(NCc3ccccn3)cc(C(C)(C)C)nc2c1-c1ccccc1,9,6,1.4,-24,-11,-9
COCCN(Cc1cc2cc(C)c(C)cc2nc1Cl)C(=O)N1CCOCC1,-7,1,-0.7,-11,-2,-18
Cc1nnc(NC(=O)C2CCCN(c3ncccn3)C2)s1 (centres undefined),-12,25,-0.3,41,6,-10
CN(Cc1ccccc1)c1ccc(N2C(=O)CCCC2=O)cc1[N+](=O)[O-],-5,-11,-0.6,-7,22,-18
O=C(c1ccc2c(c1)OCO2)N(c1ccc(Br)cc1)C1C=CS(=O)(=O)C1 (centres undefined),6,7,0.1,10,7,28
COc1ccc(S(=O)(=O)N2CCCCCC2)cc1C(=O)OCC(=O)NC1CCS(=O)(=O)C1 (centres undefined),18,4,-0.4,2,/,1
O=C(N[C@@H]1C/C=C\C[C@H](CC(=O)N(CCO)Cc2ccccc2)C(=O)NC[C@@H](c2ccccc2)OC1=O)OCC1c2ccccc2-c2ccccc21,0,2,-0.4,-1,/,-10
COc1ccccc1-c1noc(-c2ccccc2)n1,4,21,0.0,21,?,-24
CCOc1ccc(N2CC(C(=O)NC3CCSC3=O)CC2=O)cc1 (centres undefined),6,5,0.9,2,3,0

# Molecules listed so far that contain a tert-butyl group:
SMILES,TRPML1 inh,Six1-Eya2 inh,TRPML1 ag,CtBP-E1A inh,TRPV1 PAM,D2 potentiator
CCc1ccccc1NC(=O)CSc1nnc([C@@H](NC(=O)OC(C)(C)C)C(C)C)o1,7,-2,0.1,0,-10,-10
Cc1nn2c(NCc3ccccn3)cc(C(C)(C)C)nc2c1-c1ccccc1,9,6,1.4,-24,-11,-9

# (more compounds)
SMILES,TRPML1 inh,Six1-Eya2 inh,TRPML1 ag,CtBP-E1A inh,TRPV1 PAM,D2 potentiator
CCOCC(=O)Nc1nc2ccc(OCC)cc2s1,-7,-7,1.5,-18,-1,18
COc1ccc(C(=O)COC(=O)c2cc3ccccc3oc2=O)c(OC)c1,14,6,0.5,3,-2,-68
COc1ccc(CCCC(=O)O)c(C)c1,-2,-6,0.9,-4,15,25
O=C(NCCCN1CCOCC1)c1ccc2c(c1)N(Cc1cccc(F)c1)C(=O)c1ccccc1S2,44,-17,-0.4,/,-14,-15
O=C(NCCCN1CCOCC1)C1CCC(=O)N1C1CCCCC1 (centres undefined),-4,6,0.3,5,3,10
Cc1cc(C)c(C#N)c(SCC(=O)N2CCCCC2)n1,-1,-8,0.6,-4,17,-10
N#CC1(C#N)C(c2ccccc2)OC23CCCCC2C1(C#N)C(=N)O3 (centres undefined),-1,-8,0.9,-5,2,?
CC(C)C(C(=O)N1CCOCC1)N1C(=O)c2ccccc2C1=O (centres undefined),-2,7,1.6,0,6,-5
O=C(COC(=O)CCSc1ccccc1)Nc1ccc(F)cc1Cl,-11,16,-0.4,15,-40,-8
Cc1ccccc1Cc1c(C)nc2ncnn2c1C,2,1,-0.3,-5,-4,?
O=[N+]([O-])c1ccc(CN2CCOCCOCCOCC2)cc1,-6,4,0.2,18,-1,-10
CCN(CC)CCN(C(=O)CCOc1ccccc1)c1nc2ccc(F)cc2s1,0,2,-0.6,6,7,-14
COc1ccc(NC(=S)NCCc2ccc(Cl)cc2)c(OC)c1,4,-12,-0.4,-11,-12,-28
CCN(CC)c1ccc(Nc2nc(Cl)ncc2Br)cc1,71,?,1.6,?,-6,-1
Cc1ccccc1CNC(=O)CCC(=O)N1CCOc2ccccc21,39,1,0.0,7,-20,2
C=CCSc1nc2c(c(=O)[nH]c(=O)n2C)n1C/C=C(/C)Cl,-10,-1,0.2,5,-4,-3
N=c1c[n+](-c2ccc(Cl)cc2)[n-]o1,28,3,-0.3,3,-7,-18
Cc1ccc(NC(=O)C[n+]2ccccc2)cc1[N+](=O)[O-],9,2,-0.5,-1,/,-28
Cc1ccc(Oc2nc(-c3cccnc3)nc3ccccc23)c([N+](=O)[O-])n1,4,-3,1.2,-1,-5,-6
CCOC(=O)CC1=NN(c2ccccc2)C(=O)/C1=C\c1ccc(OC)cc1OC,1,5,-0.4,-3,14,-3
CC/C(=N\NC(=O)c1c[nH]c2ccccc12)c1cccs1,-11,-13,0.7,-8,-5,-21
CC(C)CNC(=S)NC1CC2CCCC(C1)N2Cc1cccs1 (centres undefined),-1,-1,1.6,11,15,-24
CCOC(=O)C(NC(=O)c1ccccc1F)(Nc1cc(C)on1)C(F)(F)F (centres undefined),38,-2,0.4,2,4,-7
Cc1ccc(CS(=O)(=O)c2ccccc2-c2nnc(-c3ccc(Cl)cc3)o2)cc1,72,7,1.7,-1,-6,-22
CN1CCN(c2c(F)cc3c(=O)c(C(=O)O)cn4c3c2OCN4C)CC1,5,5,-0.1,/,-16,-13
COc1ccc(S(=O)(=O)N2Cc3ccccc3CC2C(=O)Nc2nccs2)cc1 (centres undefined),-2,19,1.3,28,-4,-8
CN(C)S(=O)(=O)c1ccc(Cl)c(NC(=O)CN2CCN(c3ccccn3)CC2)c1,-5,-13,1.2,-9,-9,3
Cc1ccc2c(CC(=O)NCCc3ccc(S(N)(=O)=O)cc3)coc2c1,33,2,-0.3,11,6,-3
CS(=O)(=O)NCCSCc1ccco1,10,-10,0.5,-5,1,-6
O=C(Nc1cc(Cl)ccc1N1CCOCC1)c1ccc(N2CCCC2=O)cc1,-1,1,-0.3,6,-18,4
COCc1cc(C)nc(SCc2ccc(Cl)cc2)c1C#N,24,27,3.1,37,-14,0
C=CCOC(=O)C1=C(C)NC(=O)NC1c1ccc(OCC)cc1 (centres undefined),-1,1,-0.2,-6,-6,-8
CCCCCCCCN1C(=O)[C@H](CC(=O)NCc2cccc(C(F)(F)F)c2)C[C@@]2(C(=O)OCC)CCCC=C12,/,-9,-0.1,-11,/,/
CCOC(=O)Cc1nnc(NC(=O)Nc2ccccc2)s1,-1,2,-0.5,5,6,4
COc1ccc2c(COC(=O)CNC(=O)C34CC5CC(CC(C5)C3)C4)cc(=O)oc2c1,13,-3,-0.5,-3,-8,13
CCOC(=O)Nc1cc(NC(=O)OCC)ncn1,-13,16,0.1,0,/,-2
COc1ccc2c(c1OC)C(=O)OC2Nc1nc(-c2cc3cc([N+](=O)[O-])ccc3oc2=O)cs1 (centres undefined),5,-7,0.5,2,-7,1
O=C(O)C1=C[C@H](C2CC2)C[C@H](OCCCCO)O1,6,-8,-0.6,/,-1,-8
O=C(Nc1cc(C(F)(F)F)ccc1F)C1CCCCC1,-8,11,-0.3,14,-1,-16
COCC(=O)Nc1ccc2c(c1)[C@@H]1C[C@H](CC(=O)OC)O[C@@H](CO)[C@@H]1O2,-17,4,-0.3,3,/,4
Cc1ccc(S(=O)(=O)N(C)c2ccc3c(c2)C(=O)c2ccccc2-3)cc1,/,6,-0.1,4,/,-2
